Screening results (PubChem)
HNF4A DNA FP: change in binding of human HNF4 alpha to DNA; HNF4a-FITC DNA binding, fluorescence polarization, 1 h; 360,000 tested, 0.3% active; activity change, % at 10 µM; P41235; in the data active = activity change above about 30%, passing the limit was not always enough;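 also: controls were the assay level and a saturating level of protein; the project sought stronger binding though the title names inhibitors; some compounds called inactive have numbers as strong as hits; positive values seem to mean higher polarization but the record does not say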
ALR H2O2 inh: blocks human ALR sulfhydryl oxidase activity; P55789; purified ALR, DTT oxidation, H2O2 HRP-luminol luminescence; inhibition, % (concentration not given with the values); 290,000 tested, 3.8% active; AID 485317;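 active = mean and each replicate at 75% or more; inconclusive = only one of the two met; inactive = neither met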;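 also: stock transfer was 7.5 nL into about 7.5 µL; 0% = neutral wells and 100% = wells with inactivated enzyme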
RanGTP-Impb inh: disruptors of Ran-importin-beta complex formation – biochemical, FRET, CFP-Ran, YFP-importin-beta, homogeneous, primary screen | cell-free CFP-Ran/YFP-importin-beta FRET ratio | inhibition, % (test concentration not listed) | 300,000 tested, 1.1% active | AID 2216;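 active = most replicates above 15%; inconclusive = exactly half above 15%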;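 also: 0% = DMSO wells and 100% = Ran loaded with GDP instead of GTP; wells of about 40 µL received 100 nL stock; the first replicate is given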
Vif TR-FRET: inhibitors of Vif binding to APOBEC3G peptide, primary screen, biochemical, TR-FRET, GST-Vif 1-94, biotin-A3G peptide, dose response retest (AID 1117319) | TR-FRET GST-Vif / biotin-A3G peptide binding; higher % means a stronger effect; test concentration not given here; strong numbers were not always called active | one-dose inhibition, %; IC50 in µM for titrated hits | 260,000 tested, 0.57% active;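 active = above the screen mean plus three standard deviations and confirmed in dose response; inconclusive = results disagree or hit not tested in dose response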;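 also: Vif residues 1-94 fused to GST binding biotinylated APOBEC3G peptide 110-148; 0% = full assay without inhibitor and 100% = GST in place of GST-Vif; retest series ran down from 100 µM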
Calb FLC: affects C. albicans growth with fluconazole | C. albicans CaCi-2 (fluconazole-resistant clinical isolate) + fluconazole, Alamar Blue growth, 48 h | growth inhibition, % (no concentration beside the values) | 300,000 tested, 0.57% active;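 active = most replicates above 75%; inconclusive = exactly half above 75%; inactive = most below 75%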;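 also: all wells also contain fluconazole at 8 µg/ml as a sub-toxic cotreatment; 0% = median of DMSO wells and 100% = median of geldanamycin control wells; wells of about 8 µL received 7.5 nL stock; the first replicate is given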
LANA-H2A inh: blocks KSHV LANA binding to histone H2A/H2B; Q9QR71; cell-free LANA-H2A/H2B peptide, fluorescence polarization; inhibition, % (no concentration beside the values); 320,000 tested, 0.6% active; in the data active = inhibition mostly above about 10%, no sharp cut-off; inactive = mostly below about 6.7%;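 also: stock transfer was 7.5 nL into about 10 µL; 0% = median of vehicle wells and 100% = median of positive control wells; one replicate is shown; the record names a cut of 25% in any replicate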
Target sequence (Q9QR71 whole entry, looked up): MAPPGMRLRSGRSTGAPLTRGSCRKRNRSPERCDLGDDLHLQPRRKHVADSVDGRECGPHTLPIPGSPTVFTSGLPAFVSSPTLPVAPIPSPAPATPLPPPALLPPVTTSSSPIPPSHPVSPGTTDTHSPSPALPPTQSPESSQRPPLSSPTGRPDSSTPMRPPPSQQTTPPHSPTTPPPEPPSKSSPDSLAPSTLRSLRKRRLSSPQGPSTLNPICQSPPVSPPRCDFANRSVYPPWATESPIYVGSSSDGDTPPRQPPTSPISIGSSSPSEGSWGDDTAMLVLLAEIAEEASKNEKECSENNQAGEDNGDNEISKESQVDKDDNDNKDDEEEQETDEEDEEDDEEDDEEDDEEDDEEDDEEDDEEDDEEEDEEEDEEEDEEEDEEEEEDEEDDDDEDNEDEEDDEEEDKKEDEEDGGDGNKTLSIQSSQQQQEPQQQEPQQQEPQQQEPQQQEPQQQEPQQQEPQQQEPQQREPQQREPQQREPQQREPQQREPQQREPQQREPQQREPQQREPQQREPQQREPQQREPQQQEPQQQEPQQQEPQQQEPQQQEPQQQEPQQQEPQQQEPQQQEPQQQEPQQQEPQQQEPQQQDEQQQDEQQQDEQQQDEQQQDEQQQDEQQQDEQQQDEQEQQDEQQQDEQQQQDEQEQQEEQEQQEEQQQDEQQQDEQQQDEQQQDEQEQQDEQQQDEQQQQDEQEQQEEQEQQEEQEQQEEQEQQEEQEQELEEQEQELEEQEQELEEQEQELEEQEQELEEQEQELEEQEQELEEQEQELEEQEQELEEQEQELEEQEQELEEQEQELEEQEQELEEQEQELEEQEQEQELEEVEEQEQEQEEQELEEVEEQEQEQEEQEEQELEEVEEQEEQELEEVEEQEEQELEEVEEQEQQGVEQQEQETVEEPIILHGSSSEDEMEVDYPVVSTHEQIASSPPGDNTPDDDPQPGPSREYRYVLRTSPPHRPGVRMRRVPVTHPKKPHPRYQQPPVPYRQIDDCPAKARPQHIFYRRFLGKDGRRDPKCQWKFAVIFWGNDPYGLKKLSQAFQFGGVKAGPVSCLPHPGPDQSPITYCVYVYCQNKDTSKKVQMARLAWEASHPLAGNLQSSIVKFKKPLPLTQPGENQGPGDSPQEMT
B2AR ag: activates human beta-2 adrenergic receptor causing internalization; response, % (concentration not given with the values); P07550; Am2.2-beta2AR cells, FAP receptor internalization, flow cytometry; reference of the scale not given here; 340,000 tested, 0.43% active; AID 504454;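 active = response above a set limit, near 3 SD of response in nonfluorescent compounds, cut at about 42% in these data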;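 also: stock transfer was 100 nL into about 11 µL; a reference agonist was the positive control; negative values mostly stem from fluorescent compounds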
Numbers without * were called inactive; ? = inconclusive; . = not tested or not shown. The order is random. Share with any hit: about 6.3%.

SMILES	HNF4A DNA FP	ALR H2O2 inh	RanGTP-Impb inh	Vif TR-FRET	Calb FLC	LANA-H2A inh	B2AR ag
CCn1c(SCC(=O)c2c(N)n(C3CC3)c(=O)[nH]c2=O)nnc1-c1ccoc1C	0.7	3	.	-1%	.	-1.0	-4
CCC(C)NC(=O)c1c(N)n(/N=C/c2cccnc2)c2nc3ccccc3nc12 (stereo not given)	-2.0	-3	0.9	3%	27	2.8	48*
CCN1CCN(C(=O)C2(NC(=O)Nc3ccccc3Cl)CCCCC2)CC1	-3.5	-1	4.0	.	10	-3.2	1
CCCCOc1ccc(OCCNC(=O)c2ccco2)cc1	0.3	.	1.0	.	-11	0.7	-3
O=C(NCc1cnc2ccccn12)C1CCC(=O)N(Cc2ccccc2F)C1 (stereo not given)	2.2	-5	-2.9	.	0	-12	0
COc1ccccc1NC(=O)CSc1c2c(nc3ccccc13)CCC2	0.6	99*	-4.4	-2%	-6	-1.1	-3
O=C1OCCC1Sc1nnc(-c2ccc(O)cc2)o1 (stereo not given)	-3.5	33	5.2	5%	3	0.3	-6
Cc1cccc(Cc2cnc(NC(=O)CN3C(=O)/C(=C/c4ccccc4)SC3=S)s2)c1	4.5	-14	-2.3	3%	11	-1.9	1
OCC1OC(n2nc3ccccc3n2)C(O)C(O)C1O (stereo not given)	-0.1	-5	4.8	-3%	-2	-0.4	-1
CCN(CC(=O)Nc1ccc(NC(C)=O)cc1)C(=O)Cc1ccc(Cl)c(Cl)c1	2.1	.	-1.5	.	0	.	-20
CC(=O)NC1=NN(C(C)=O)C(C)(c2ccc3ccccc3c2)S1 (stereo not given)	-1.9	-3	-3.0	?	-23	-3.0	-1
CCOCCCNC(=O)C(Cc1ccccc1)NS(=O)(=O)c1cccc2nsnc12 (stereo not given)	-1.9	-14	.	7%	29	3.2	-14
O=C(/C=C/c1ccc([N+](=O)[O-])s1)N1CCN(c2ccccc2)CC1	2.0	-13	0.5	2%	3	0.8	6
O=c1[nH]c(CN2CCN(C/C=C/c3ccccc3)CC2)nc2ccccc12	-1.5	31	?	-3%	2	-5.1	-13
CCC1=C2CC[C@H]3C(=O)N(c4ccccc4)C(=O)[C@H]3[C@H]2[C@@]2(C)C(=NCC3CC3)OC(=O)N2C1=O	2.9	-7	-0.7	1%	-5	4.4	-1
Cn1c(-c2ccccc2)cc(=O)c2ccccc21	-0.9	-1	-0.9	?	12	-3.2	-9
CCOc1ccc(/C(C)=N/N2C(=O)C(CC(=O)Nc3ccc(OC)cc3[N+](=O)[O-])SC2=Nc2cccc(C)c2C)cc1 (stereo not given)	2.6	-2	0.3	-1%	7	3.6	6
CCNCc1cc(OCC)c(OCC(=O)NCCc2ccccc2)cc1Cl	1.1	-3	-2.3	?	-20	0.6	-5
COC(=O)Cn1ncc2c(C)n(Cc3ccccc3)c(C)c2c1=O	-1.9	9	-2.4	0%	1	1.3	-5
COC(=O)c1c(-c2ccc(OC)cc2)sc2ccc(N3CCOCC3)cc12	0.0	-6	.	.	.	-3.1	8
COc1cccc(-c2nn(C)c3sc(C(=O)NCc4ccc(C)cc4)cc23)c1	0.0	.	1.7	-7%	37	3.8	3
O=[N+]([O-])c1ccccc1N/N=C\c1ccccc1F	2.3	-14	-0.6	-9%	-6	3.9	-3
C/C(=N/NC(=O)CNC(=O)c1ccco1)c1ccco1	1.9	7	-1.4	.	-34	0.8	6
O=[N+]([O-])c1cccnc1Sc1ccc(Cl)cc1	-1.8	39	7.7	1%	-4	3.3	-5
Cc1ccc(NC(=O)Nc2ccon2)cc1	1.6	.	4.3	.	-7	.	13

Part of the list above, bar-delimited.
structure | HNF4A DNA FP | ALR H2O2 inh | RanGTP-Impb inh | Vif TR-FRET | Calb FLC | LANA-H2A inh | B2AR ag
COC(=O)c1c(-c2ccc(OC)cc2)sc2ccc(N3CCOCC3)cc12 | 0.0 | -6 | . | . | . | -3.1 | 8
CCC1=C2CC[C@H]3C(=O)N(c4ccccc4)C(=O)[C@H]3[C@H]2[C@@]2(C)C(=NCC3CC3)OC(=O)N2C1=O | 2.9 | -7 | -0.7 | 1% | -5 | 4.4 | -1

The list goes on.
SMILES	HNF4A DNA FP	ALR H2O2 inh	RanGTP-Impb inh	Vif TR-FRET	Calb FLC	LANA-H2A inh	B2AR ag
CC(=O)c1cn(C)c(=O)n(C)c1=O	-1.2	-4	-0.4	.	-7	1.1	0
Cc1ccc(NC(=O)Nc2cnccn2)cc1Cl	2.0	-5	?	-5%	7	0.6	7
CCOC(=O)c1cc(CC)sc1NC(=O)COC	-0.3	-4	2.3	-4%	2	-2.8	-6
OC1(c2cccc(C(F)(F)F)c2)CCN(CCN2CCCCC2)CC1	0.1	-4	3.1	.	1	4.2	-1
CCN(CC)/C(=N/S(=O)(=O)c1ccc(C)cc1)c1ccccc1	1.6	-14	3.0	1%	27	1.4	78*
CC1=C(C(=O)Nc2ccccc2)C(c2ccccc2[N+](=O)[O-])NC(=O)N1 (stereo not given)	6.9	-12	1.3	-6%	40	-2.2	-4
OCc1nc2ccc(Cl)cc2[nH]1	2.1	-7	-0.9	6%	6	6.4	4
CN(C)C(=C(C#N)C#N)N1CCN(c2ccc(Cl)cc2)CC1	-0.2	39	0.6	-6%	0	1.7	1
CC(C)c1onc(C(=O)NC2CCCC2)c1[N+](=O)[O-]	-1.9	3	-0.5	1%	17	1.6	-2
CC(=O)N1N=C(c2c(-c3ccccc3)c3cc(C)ccc3[nH]c2=O)CC1c1ccco1 (stereo not given)	1.6	-7	1.3	10%	10	-4.7	7
Cc1ccc(S(=O)(=O)N(CC(=O)NCCSc2ccccn2)c2cc(C)cc(C)c2)cc1	-3.7	-2	2.2	1%	-1	-5.1	-6
O=C1CC(c2ccccc2)CC(O)=C1C=NC1CCCC1 (stereo not given)	0.0	-2	-2.3	0%	1	3.4	-11
NC(=O)[C@@H]1CCCCNc2c(I)cc([N+](=O)[O-])cc2C(=O)N[C@@H](CCC(=O)O)C(=O)N[C@@H](CO)C(=O)N1	-10	12	9.6	?	2	2.0	-9
Cc1ccccc1OCCC(=O)Nc1ccccc1C(=O)NC1CC1	2.2	.	4.1	47%	-2	0.8	1
COc1cc(NC(=S)Nc2cccc(Cl)c2Cl)c(OC)cc1Cl	0.8	-9	-3.2	12%	-1	-0.8	-9
CCOC(=O)C1C(=O)N(C(=O)c2cncc(Br)c2)CC1c1ccccc1 (stereo not given)	-0.2	13	-4.1	-2%	-5	-1.9	9
CC(C)OP(=O)(OC(C)C)C(NC(=O)c1ccccc1)C(N)=O (stereo not given)	-1.1	-2	-2.3	13%	-1	1.5	2
Cc1nn(CCC(=O)N2CCN(S(=O)(=O)c3ccc(Cl)cc3)CC2)c(C)c1C	0.5	0	0.9	.	3	2.7	4
CCOc1[nH]n(-c2ccc(Cl)cc2)c(=O)c1C=NCc1cccnc1	-5.6	12	1.7	-3%	23	-2.3	0
CC(=O)N1C(=O)NC(c2ccccc2)=C([N+](=O)[O-])C1c1ccccc1 (stereo not given)	0.8	4	2.0	.	4	3.2	12
COc1nc(/C(N)=N/O)nc(N2CCCCC2)n1	-2.0	0	3.8	1%	5	2.1	-5
O=C(CN(c1ccccc1)S(=O)(=O)c1ccccc1[N+](=O)[O-])NN=C1CCCCCCC1	-4.7	2	-5.4	5%	7	-4.3	0
O=C(COc1cccc2ccccc12)N/N=C/c1ccncc1	4.8	-1	-4.8	4%	-8	3.1	6
CNc1nc(-c2ccccc2)nc(-c2ccccc2)c1C#N	3.2	-4	1.6	1%	-8	1.5	0
C=CCn1c(=O)/c(=C/c2ccc(O)cc2)s/c1=C(/C#N)c1nnc2n1CCCCC2	80*	59	.	4%	.	-33	1
Next section.
SMILES	HNF4A DNA FP	ALR H2O2 inh	RanGTP-Impb inh	Vif TR-FRET	Calb FLC	LANA-H2A inh	B2AR ag
Cc1cc(Cl)c(S(=O)(=O)NC(C(=O)O)c2ccccc2)cc1OCC(N)=O (stereo not given)	3.7	6	3.6	-2%	-9	-2.2	-18
O=C(OCCc1cc2ccccc2c(=O)o1)c1ccco1	0.0	-2	.	.	.	-0.9	-2
O=C(NCCCN1CCCC1=O)c1cccc(S(=O)(=O)N2CCN(c3ccc(F)cc3)CC2)c1	7.3	24	-1.0	.	-10	-2.6	-4
COc1ccccc1-c1cc(C(=O)Nc2cccnc2)no1	0.1	-2	-5.0	9%	-10	2.1	19
COc1cccc(CC(NC(C)=O)C(=O)NC2CCN(C(=O)c3ccc(Cl)cc3)CC2)c1OC (stereo not given)	2.5	.	-1.0	-7%	6	1.6	-1
O=C(CCN1C(=O)c2ccccc2S1(=O)=O)NCc1ccco1	0.1	-2	?	1%	-2	-2.2	-2
CCOc1cc(S(=O)(=O)N2CCC(Cc3ccccc3)CC2)c(OCC)cc1-n1cnnn1	-0.1	-20	-2.2	-5%	27	1.9	-5
Oc1cc(NCc2cccnc2)ccc1-c1nc2ccccc2o1	-2.2	5	-7.6	-3%	3	0.4	2
FC(F)(F)c1cnc(C(c2ccccn2)c2ncn[nH]2)c(Cl)c1 (stereo not given)	2.8	1	?	-2%	4	-10	-5
CC(C)N(Cc1nnc(-c2ccc(Cl)cc2)o1)C(=O)c1cc2ccccc2o1	2.2	0	.	-5%	.	3.0	-11
CCC(=O)c1cn(CCOc2ccccc2OC)c2ccccc12	3.0	2	6.2	-10%	0	9.6	-2
CCOC(=O)c1c(NC(=O)CNC2CCCc3ccccc32)sc(C(N)=O)c1C (stereo not given)	2.7	.	3.2	-3%	25	2.9	-4
COc1ccc(CNS(=O)(=O)c2ccc(-c3cnc(C4CC4)o3)cc2)cc1	-2.5	-9	?	-3%	16	0.3	-7
Cc1cc(NC(=O)COC(=O)c2ccc(OC(F)(F)F)cc2)no1	1.4	.	.	-8%	.	-1.6	-9
CCS(=O)(=O)Nc1cccc(-c2cc(-c3ccccc3)c3cc(C)ccc3n2)c1	-1.6	.	-2.1	.	-1	.	-4
Cc1ccc(-c2ccc(=O)n(CC(=O)NCCC(C)C)n2)cc1	1.1	-10	3.0	8%	-2	-1.6	10
COc1cccc(CNc2ccc3[nH]c(=O)[nH]c3c2)c1OCc1ccc(F)cc1	3.3	?	7.2	22%	27	-2.2	12
Cc1ccc(CC(CC(=O)O)C(=O)NCc2ccccc2)cc1 (stereo not given)	-1.0	-1	-0.2	.	-5	-1.4	-1
CCCc1nnc(SCc2ccc(C(=O)OC)o2)n1N	0.1	-12	3.3	?	.	4.2	3
Cc1cc(C(=O)N/N=C/c2cc(Br)cc([N+](=O)[O-])c2O)c2ccccc2n1	3.3	.	-4.7	.	2	-9.7	19
CC1CCC(NC(=O)CN2C(=O)NC3(CCCCCC3)C2=O)CC1 (stereo not given)	-0.9	-10	.	-5%	.	-3.4	3
COc1ccc(O)c(C(=O)CC(=O)c2ccncc2)c1	-0.3	.	.	0%	.	.	6
Cc1nc(NC(=O)COC(=O)C(C)NC(=O)c2ccccc2)c(Cl)cc1Cl (stereo not given)	2.2	.	.	-15%	.	0.9	1
COC(=O)c1cnn(-c2ccccc2)c1/C=N/NC(=S)Nc1ccccc1	0.2	7	1.8	-9%	-6	0.2	8
Cc1[nH]c2ccc(C(=O)NCCCN3CCOCC3)cc2c1C	0.6	6	-1.2	-3%	-2	-0.4	-6
CCOC(=O)Cn1c(=O)oc2cc(S(=O)(=O)Nc3c(C)cc(C)cc3C)ccc21	2.0	1	.	72%	.	1.2	23
O=C(NCCC1CC1(Cl)Cl)c1ccc([N+](=O)[O-])cc1 (stereo not given)	2.0	-32	0.7	-4%	4	-1.4	-3
COc1cc(/C=C/C(=O)OC(C)C(=O)Nc2ccc(Cl)cn2)ccc1OC(F)F (stereo not given)	1.6	14	.	1%	.	3.5	2

Printed as active in ALR H2O2 inh, of those listed so far:
smiles	HNF4A DNA FP	ALR H2O2 inh	RanGTP-Impb inh	Vif TR-FRET	LANA-H2A inh	B2AR ag
COc1ccccc1NC(=O)CSc1c2c(nc3ccccc13)CCC2	0.6	99*	-4.4	-2%	-1.1	-3
